# Source: PubChem (Center for Chemical Genomics, University of Michigan)
# HIV TAR-Tat: HIV-1 TAR-Tat binding disruption | HIV-1 TAR RNA, Tat peptide displacement FRET; stronger effect = higher value | z-score (test concentration not listed) | 100,000 compounds, 0.6% hits | AID 1259389;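 also: score is relative to mean and SD of negative controls; some compounds called inactive have numbers as strong as hits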
# CDC25B CDK2 inh: human CDC25B-CDK2/CyclinA binding inhibition; P30305+P24941; z-score (no concentration beside the values); AID 1259370; HTRF CDC25B-CDK2/CyclinA binding, anti-His/anti-Flag; stronger effect = higher value; 94,000 compounds, 0.72% hits;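 also: score is relative to mean and SD of negative controls; strong numbers were not always called active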
# Active calls of the source: *; nt = no result given.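 The calls were made as follows: active = z-score from 3 up in half or more of its runs; inactive = the rest.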
molecule,CDC25B CDK2 inh,HIV TAR-Tat
Cc1cc2oc3c(c(=O)c2cc1C)C(c1ccccc1)N(CCCn1ccnc1)C3=O (stereo not drawn),-1.7,-0.77
CCC(C)NC(=O)C(=O)Nc1c2c(nn1-c1ccc(F)cc1)CSC2 (stereo not drawn),nt,1
CCCCCn1c(CCCO)nc2ccccc21,1.1,-0.53
C=CCSc1nnc(-c2ccc(Br)cc2)o1,-1.8,1.6
COc1cc(/C=C/C2=NNC(=O)CC2)cc(OC)c1OC,-2,nt
CC1CCCC(C)N1C(=O)c1noc2c1CC(C(C)(C)C)CC2 (stereo not drawn),-1,-0.43
COc1cccc(C2Nc3ccccc3-c3nc4ccccc4n32)c1 (stereo not drawn),0.01,-0.17
CC1=C(c2cccc(Cl)c2)S(=O)(=O)N=C1N1CCN(c2ccc(F)cc2)CC1,-1.1,0.35
CC(C)Nc1nc(N2CCC(N3CCCCC3)CC2)nc2c1cnn2C,nt,1.4
C=CCOc1ccc(C2CC(=O)Nc3c2c(C)nn3-c2nncc(-c3ccc(OC)cc3)n2)cc1OC (stereo not drawn),-0.54,3.2
CCCn1c(NCc2cc(C)ccc2O)nc2ccccc21,-2.1,-1.6
Cc1ccc(S(=O)(=O)N2CCN(C(=O)CSc3nnc(C)s3)C2)cc1,0.74,2

# Three compounds out of the list, arranged by count of non-hydrogen atoms, highest first.
molecule,CDC25B CDK2 inh,HIV TAR-Tat
CC1=C(c2cccc(Cl)c2)S(=O)(=O)N=C1N1CCN(c2ccc(F)cc2)CC1,-1.1,0.35
CCCCCn1c(CCCO)nc2ccccc21,1.1,-0.53
C=CCSc1nnc(-c2ccc(Br)cc2)o1,-1.8,1.6

# (next part)
molecule,CDC25B CDK2 inh,HIV TAR-Tat
COc1ccc(-c2n[nH]c3c2C(c2cccs2)NC3=O)cc1 (stereo not drawn),nt,0.79
CCCCN(C)S(=O)(=O)c1ccc(NC2=NS(=O)(=O)c3ccccc32)cc1,-0.59,-0.6
COC(=O)c1ccc(-c2ccco2)n1CC(=O)N1CCc2ccccc21,nt,-9.9
Cc1ccccc1NC(=O)Nc1c(C)n(C)n(-c2ccccc2)c1=O,-1.1,0.87
Cc1ccc(-c2nc3scc(CCNS(=O)(=O)c4ccc(Cl)cc4)n3n2)cc1,nt,1.7
CCC(C)[C@H]1O[C@]2(CC[C@@H]1C)C[C@@H]1C[C@@H](C/C=C(\C)C(O[C@H]3C[C@H](OC)C(O[C@H]4C[C@H](OC)[C@@H](O)[C@H](C)O4)[C@H](C)O3)[C@@H](C)/C=C/C=C3\CO[C@@H]4[C@H](O)C(C)=C[C@@H](C(=O)O1)[C@]34O)O2 (stereo partly drawn),nt,2.2
Cn1c(=O)n(CC(=O)N2CCCC2)c(=O)c2cc(S(=O)(=O)N3CCOCC3)ccc21,nt,0.64
Cc1ccc(C(=O)Nc2nc(CC(C)O)ns2)cc1 (stereo not drawn),-0.07,11
O=C(Nc1ccc2c(c1)OCCO2)C1CCN(S(=O)(=O)c2cccc3nsnc23)CC1,-1.5,nt
CC/C(=C\c1sc2ccc(OC)cc2[n+]1CC)SC,-3.3,2.2
CCCOC(=O)C1=C(C)NC2=C(C(=O)CCC2)C1c1ccc(C(=O)OC)cc1 (stereo not drawn),-1.3,0.71
N#C/C(=C\c1ccc(C#Cc2ccccc2)s1)C(=O)c1ccco1,0.19,nt

# Single values from the list.
# HIV TAR-Tat result of `CCCCN(C)S(=O)(=O)c1ccc(NC2=NS(=O)(=O)c3ccccc32)cc1` = -0.6
# CDC25B CDK2 inh result of `Cc1ccccc1NC(=O)Nc1c(C)n(C)n(-c2ccccc2)c1=O` = -1.1
# CDC25B CDK2 inh result of `CC/C(=C\c1sc2ccc(OC)cc2[n+]1CC)SC` = -3.3
# CDC25B CDK2 inh result of `CCCOC(=O)C1=C(C)NC2=C(C(=O)CCC2)C1c1ccc(C(=O)OC)cc1` (stereo not drawn) = -1.3

# Continuation.
molecule,CDC25B CDK2 inh,HIV TAR-Tat
O=C1COc2cc(S(=O)(=O)N3CCC(Cc4ccccc4)CC3)c(Cl)cc2N1,nt,1.3
Clc1ccc(-c2nnnn2-c2cnccn2)cc1,-0.24,nt
O=C(CSc1nc2ccccc2nc1N1CCOCC1)NCc1ccco1,0.55,0.5
COc1cccc(-c2nc(-c3ccc(Cl)cc3)no2)c1,0.93,0.35
FC(F)(F)c1c2c(nc3cc(-c4ccco4)nn13)CCC2,0.2,nt
O=C(Nc1ccc(F)cc1)c1nc2ccccc2nc1Cl,-2.2,-0.3
COc1ccc(-c2noc(-c3cccnc3NCc3ccc(Cl)cc3)n2)cc1,-1.2,-0.7
Cc1cccc(-c2nc(CCN(C)S(=O)(=O)c3cccc4nsnc34)no2)c1,nt,1.2
COc1ccccc1/C=C/c1nc(C#N)c(NCc2ccccc2)o1,0.17,0.77
Cc1c(S(=O)(=O)c2ccccc2)nnn1-c1ccc(Br)cc1,-0.58,1.2
CCCCC(=O)Nc1nnc(SCc2cc(=O)n3cc(C)sc3n2)s1,nt,0.59
Cc1cc(=O)oc2c1c(C)nn2-c1cccc(C(=O)O)c1,-0.24,nt
CCN1C(=O)C(NC(C)=O)c2cc(Br)ccc21 (stereo not drawn),-1.6,-0.14
CCOCCCNS(=O)(=O)c1cc2c(cc1Cl)NC(=O)CO2,nt,-6.6
CCOC(=O)c1sc(NC(=O)c2cc(-c3cccs3)on2)c(C(=O)OCC)c1C,-0.48,nt
CCOC(=O)C1CCCN(c2c(NCC3CCCN3CC)c(=O)c2=O)C1 (stereo not drawn),-0.81,0.52
CCn1c(C(=O)N2CCN(c3ccccn3)CC2)cc2sccc21,0.94,-0.53
CC(C)NC(=O)c1c2c(nn1C)-c1ccccc1SC2,0.15,0.83
O=C(NCc1cccnc1)c1ccccc1C(=O)Nc1sc2ccccc2c1Cl,-0.93,nt
COc1ccc(S(=O)(=O)N(Cc2nc(-c3ccc(Cl)cc3)no2)C2CCCCC2)cc1,-2.3,1.3
Cn1c(=O)c2cn(S(=O)(=O)c3cccc4nsnc34)nc2n(C)c1=O,nt,2
Cc1c(NC(=O)c2cc(-c3cccnc3)nc3ccccc23)c(=O)n(-c2ccccc2)n1C,nt,1.6
Cn1c(=O)oc2cc(S(=O)(=O)NCCC(=O)N3CCCC3)ccc21,-0.83,nt
CSc1ccc(CCNC(=O)c2ccc3snnc3c2)cc1,-1.3,1.5

# A portion taken from the entries so far, for reference:
molecule,CDC25B CDK2 inh,HIV TAR-Tat
Cc1c(NC(=O)c2cc(-c3cccnc3)nc3ccccc23)c(=O)n(-c2ccccc2)n1C,nt,1.6
Cn1c(=O)oc2cc(S(=O)(=O)NCCC(=O)N3CCCC3)ccc21,-0.83,nt
CSc1ccc(CCNC(=O)c2ccc3snnc3c2)cc1,-1.3,1.5

# Other entries follow.
molecule,CDC25B CDK2 inh,HIV TAR-Tat
COc1ccc(C2CC(=O)C=C(NC3CCCC3)C2)cc1 (stereo not drawn),-2.1,1.6
CC(C)NC(=O)CSc1nc(-c2cccc(Cl)c2)nc2cc(=O)[nH]n12,nt,1.2
O=C1CCC(C(=O)N(Cc2ccco2)C2(C(=O)NC3CCCC3)CCCCC2)N1 (stereo not drawn),-0.28,nt
O=C(CSc1nnc2ccc3ccccc3n12)Nc1ccc2c(c1)OCCO2,0.22,nt
Oc1c(Cl)cc(Cl)cc1/C=N/c1nccs1,-1.4,nt
CC(=O)N1N=C(c2cccc(Cl)c2)OC1c1ccc(C(C)C)cc1 (stereo not drawn),-1.2,nt
COc1ccc(OC)c(NS(=O)(=O)c2ccc(N3CCCCS3(=O)=O)cc2)c1,nt,-0.33
COc1ccc2c(c1)CCC/C2=N\NC(N)=S,-1.1,nt
Cn1c(=O)c(=O)n(C)c2cc(N3CCCC3)c(NC(=O)c3ccco3)cc21,0.27,0.96
Cc1ccc(C(=O)NC2(O)C(=O)c3ccccc3C2=O)cc1C,-0.89,nt
COc1ccc(Sc2cccs2)cc1,0.42,nt
O=C(NCCCN1CCN(c2ccccc2F)CC1)C1=Cc2sc3c(c2CS1)CCCC3,nt,0.81
COc1ccc(C2Oc3ccccc3C3CC(c4cccs4)=NN32)c(OC)c1OC (stereo not drawn),-0.72,nt
O=C(NC1CC1)c1cccc2cnccc12,-0.16,0.02
CC1Cc2cc(S(=O)(=O)N3CCC(C(=O)NCc4ccco4)CC3)ccc2N1C(=O)C1CC1 (stereo not drawn),nt,-0.04
CCOCCCNC(=O)C1CCCN(C(=O)c2cc3sccc3n2CC)C1 (stereo not drawn),-1.7,0.65
COC(=O)c1sccc1S(=O)(=O)Nc1cc(F)ccc1F,nt,0.08
CC(NC(=O)c1ccccc1)c1nc(-c2ccc3c(c2)Sc2ccccc2C(=O)N3C2CC2)no1 (stereo not drawn),nt,1.7
O=C(O)C1CC(C(F)(F)F)CC(C(F)(F)F)C1 (stereo not drawn),-1.4,nt
CC(C)NC(=O)Cn1c(=O)n(CC2CCC(C(=O)N3CCCCC3)CC2)c(=O)c2sccc21 (stereo not drawn),nt,0.24
c1ccc(P(=Nc2nccs2)(c2ccccc2)c2ccccc2)cc1,-3.9,nt
CC1=C(c2ccc(C(C)C)cc2)S(=O)(=O)NC1=NCc1ccc(F)cc1,-5.2,-1.5
CCOC(=O)CCc1c(C)nn(-c2ccc(N3CCCCC3)nn2)c1C,-0.75,-0.77
O=C(NCCC1=CCCCC1)c1cc2cccc3c2n1CCS3,nt,0.58
O=C(NC1CC1)c1ccc(N2CCOc3ccc(Cl)cc32)s1,nt,0.32
Cc1cc(C)c(S(=O)(=O)Nc2cccc(-c3ccc(N4CCOCC4)nn3)c2)cc1C,nt,0.9
CCCN1C(=O)C(O)(CC(=O)c2ccc3c(c2)OCO3)c2ccccc21 (stereo not drawn),1.4,1.6
COc1ccc(C(=O)c2cn(Cc3ccccc3OC)c3cc(OC)c(OC)cc3c2=O)cc1,-0.85,-0.45
COC(=O)c1sc2ncccc2c1N,-1,0.03
COc1ccc(NS(=O)(=O)c2ccc3c(c2)NC(=O)CO3)c(OC)c1,nt,2.8
COc1cccc(-c2noc(-c3cccnc3)n2)c1,-1.4,1
CC(=O)OC1CCC(C(=O)O)CC1 (stereo not drawn),-0.59,1.9
O=C1CC(c2nc3ccccc3n2Cc2cccnc2)CN1c1cccc(Cl)c1 (stereo not drawn),-1.6,-0.27
O=C(c1cnn2ccccc12)N1CCCc2ccccc21,-1.9,nt
O=C1C(c2ccc(Cl)cc2)N(C2CCCCC2)C(=O)CN1C1CCCCC1 (stereo not drawn),-1.7,nt
C=CCOc1ccccc1C1CC(=O)Nc2c1c(C)nn2-c1nncc(-c2ccccc2)n1 (stereo not drawn),-1.3,0.52
O=C(c1ccccc1)c1cccs1,nt,1.1
Cc1ccc2c(C)nc(Nc3nc(CSc4nnc(C)s4)cc(=O)[nH]3)nc2c1,-0.5,-2.1
CC1CCN(c2nn3c(=O)c(C(=O)NCCc4ccco4)cnc3s2)CC1,nt,-0.6
COc1ccc(CN2C(=O)c3oc4ccc(Cl)cc4c(=O)c3C2c2cccc(O)c2)cc1 (stereo not drawn),-0.88,0.71
COc1ccc(Cl)cc1Nc1nc2ccccc2c2nnc(C)n12,nt,-0.66
Cc1cc(-c2ccc(S(=O)(=O)NC3CCCc4ccccc43)cc2)on1 (stereo not drawn),nt,1.2
CCN1CCN(c2nc(Nc3cccc(Cl)c3)c3cnn(C)c3n2)CC1,nt,2.1
COC(=O)[C@]1(Cc2ccc(O)c(CC=C(C)C)c2)OC(=O)C(O)=C1c1ccc(O)cc1,nt,1.9
COc1ccccc1CNCc1ccc(Oc2nnnn2-c2ccccc2)c(OC)c1,nt,0.31
O=C1c2cccnc2C(Nc2ccc(F)c(Cl)c2)N1Cc1cccs1 (stereo not drawn),-0.15,0.05
CCOc1cc(C)c(S(=O)(=O)Nc2ccccn2)cc1C,-0.72,0.26
COc1ccc(C(=O)OCc2cc(=O)n3c(-c4ccccc4)csc3n2)cc1,nt,-1.4
Cc1ccc(-c2nc(CNS(=O)(=O)c3ccc(Cl)cc3)c(C)o2)cc1,nt,1.7
O=C(CCCn1ncn2c(cc3occc32)c1=O)NCc1ccc(Cl)cc1,-4.4,-0.89
O=C(O)Cn1cc2c(n1)CCCCC2,-2.1,nt
CC(C)OCCCNC(=O)c1cnc2sc3c(n2c1=O)CCCC3,nt,2.1
N#CC(=C1C=CC(=NO)C=C1)c1ccccc1,-1.1,nt
O=C(Nc1ccc2c(c1)OCCO2)C1=Cc2sc3c(c2CS1)CCCC3,nt,-1.4
O=C(c1ccccc1)N1N=C(c2ccccc2)CC1c1ccc2nccnc2c1 (stereo not drawn),0.46,nt
N#CC1CN(Cc2ccccc2)CN(Cc2ccccc2)C1,-1.5,nt
CCOC(=O)C(C#N)=C1CCCC1,-2.8,nt
Cc1nc(-c2ccccc2)cc(N2CCN(Cc3ccc4c(c3)OCO4)CC2)n1,2.7,1
COc1ccc(OC)c(NC(=O)c2c(N3CCCC3=O)c3cc(F)ccc3n2C)c1,nt,0.88
COc1ccc(-c2nc(SCc3cc(=O)n4nc(C(C)C)sc4n3)n[nH]2)cc1,nt,-0.42

# Further compounds:
molecule,CDC25B CDK2 inh,HIV TAR-Tat
COc1cc2nc(NCCc3ccccc3)n3nc(-c4cccnc4)nc3c2cc1OC,-1.1,-0.17
O=C(NCc1ccc(F)cc1)Nc1c[nH]c(=O)[nH]c1=O,-1.7,-0.38
CC(C)(C)C1CCc2onc(C(=O)Nc3ccc4c(c3)OCO4)c2C1 (stereo not drawn),-0.83,nt
O=C(Nc1ccc(Oc2ccccc2)cc1)c1cnccn1,-0.69,nt
CCn1c(SCc2nc(-c3ccccc3)no2)nnc1-c1ccc2c(c1)OCCCO2,nt,2.4
c1cncc(-c2cc3ccccc3[nH]2)c1,-1,nt
CCOCCCNc1oc(/C=C/c2cccs2)nc1C#N,-2.2,0.29
